Screens deposited in PubChem BioAssay by ICCB-Longwood Screening Facility, Harvard Medical School.
Sa helicase inh: S. aureus DNA helicase inhibition | purified S. aureus helicase, fluorescence unwinding assay; about half of the hits fall short of the stated cut | inhibition, %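 (tested at about 80 µM)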 | hit rate 0.05% among 120,000 | AID 485395;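 active means both duplicates at 50% or more, or one of them with a favoured structure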;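 further: 0% = mean of negative control wells and 100% = mean of positive control wells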
MgrA-DNA mod: modulators of Staphylococcus aureus MgrA DNA binding; fluorescence polarization; inhibition, %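 (about 10 µg/mL by stock and volumes)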; hit rate 0.13% among 84,000; AID 602314;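 active means above 50% in either of two replicates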;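 further: 0% = protein plus DNA without compound and 100% = DNA alone without protein; higher means less MgrA bound to DNA so lower polarization; one replicate is shown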
Numbers without * were called inactive; · = no result given. Some of the compounds tested; rates above refer to the full screens.

canonical_smiles | Sa helicase inh | MgrA-DNA mod
CC1(C)CC(=O)C=C(Nc2ccccc2NC(=O)c2cnccn2)C1 | 6 | -1.7
CCN(c1ccccc1C)S(=O)(=O)c1ccc(C)cc1 | -10 | 1.6
CC(C)C(=O)NCCn1ccc2ccccc21 | -10 | ·
CCOC(=O)c1cc(C)nc(Sc2ccccc2NC(=O)c2ccccc2)c1C#N | · | 0.0
CC1(C)C(=O)OC(C(=O)c2ccccc2)C(C)(C)C1=O (stereo not drawn) | 24 | 0.7
COc1cc2cc(C)c(SCC(=O)N3CCN(C(=O)c4ccco4)CC3)nc2cc1OC | 8 | 2.0
Cc1cc(C)n(-c2ccccc2O)n1 | -17 | ·
CCc1nc(CN2CCN(c3ccc(F)cc3)CC2)c(C)[nH]1 | · | -1.2
CCn1c(C2CC2)n[nH]c1=S | -4 | ·
Cc1nc(S(=O)(=O)NCc2cc(F)cc3c2OCOC3)cn1C | 2 | ·
O=C(O)C(c1ccccc1)C1CCCC1 (stereo not drawn) | · | -1.1
CCOc1cc(Cl)c(S(=O)(=O)n2ccnc2CC)cc1Cl | 15 | -2.2
COC(=O)c1cc(N2C(=O)C3C(C2=O)C2(C)C=CC3(C)O2)ccc1Cl (stereo not drawn) | · | 0.0
CN(Cc1cc(=O)n2ccsc2n1)c1ccccc1 | 7 | ·
COc1cc2oc(=O)c3c(c2cc1Cl)CCCC3 | -8 | ·
CCOC(=O)c1snc(-c2ccc(Cl)cc2)c1N | -2 | ·
COC(=O)C12CC3(C)CC(C)(C1)CC(C(=O)OC)(C3)C2 | 11 | -2.6
O=C(NCC(=O)N1CCOCC1)c1ccc(Br)cc1 | -1 | 0.0
Cc1ccccc1-c1nc2scc(-c3cccs3)c2c(=O)o1 | -14 | 1.4
CS(=O)(=O)n1nccc1-c1ccc(Oc2cccc(Cl)c2C#N)cc1 | · | -1.2
CCc1ccc(Oc2c(C(F)(F)F)oc3c(CN(C)C)c(O)ccc3c2=O)cc1 | 4 | 0.5
O=C(CSc1cnc2ccccc2n1)N1CCN(c2ccc(F)cc2)CC1 | 21 | ·
Cn1cnnc1SC/C(O)=C(\C#N)c1nc2ccccc2[nH]1 | -3 | ·
Cc1nc(NC(CC(C)C)C(=O)O)c2nc(C)oc2n1 (stereo not drawn) | 34 | ·
Cc1sc2ncnc(SCc3ccccc3C#N)c2c1C | -4 | ·
COc1ccccc1C(=O)NCC(=O)N(C)Cc1cccc(F)c1 | -10 | ·
O=C(NCc1ccccc1)C1CCN(c2cnccn2)CC1 | 19 | ·
O=CN1CCN(C(=O)c2ccco2)CC1 | 15 | 2.7
CC(C)c1ccc(S(=O)(=O)NCCOC23CC4CC(CC(C4)C2)C3)cc1 | 12 | -0.5
Cn1c(-c2ccccc2)cc(C=Nc2ccccc2)c1O | 1 | 1.8
N#Cc1cc2c([nH]c1=S)CCC2 | 14 | ·
CC1c2ccsc2CCN1C(=O)c1ccc(Cl)cc1 (stereo not drawn) | · | 3.2
N#Cc1c(NC(=O)CSc2ncnc3c2cnn3-c2ccccc2)sc2c1CCC2 | -28 | ·
O=C1c2ccccc2C(=O)N1CN(C(=O)c1ccccc1)c1ccc(Br)cc1 | 6 | 1.6
CCOC(=O)C1=C(C)N=c2s/c(=C\c3ccc(Br)o3)c(=O)n2C1c1ccc(OC)c(OC)c1 (stereo not drawn) | · | 0.2
O=C(CSc1nncn1-c1ccccc1)NCc1ccccc1 | 2 | -1.2
C1=C(CCNc2nnc(Cc3cccnc3)c3ccccc23)CCCC1 | 8 | ·
COc1ccc(NC(=O)c2cc(-c3ccc(OC)cc3)nc3ccccc23)cc1 | · | -1.4
CCOC(=O)c1[nH]c2cc(OC)c(OC)cc2c1N1C(=O)CCC1=O | 16 | 0.5
COc1ccc(CCNC(=S)N2CCCC2)cc1OC | 10 | 0.2
O=C(CCCc1ccccc1)Nc1cccnc1 | 6 | 1.3
CCn1c(SCC(N)=O)nnc1-c1cccs1 | 1 | ·
CS(=O)(=O)N(CC(=O)N1CCN(Cc2ccc3c(c2)OCO3)CC1)Cc1ccccc1 | -1 | 1.3
CC(=O)Oc1c(S(=O)(=O)c2ccccc2)c(C)nn1-c1ccccc1 | 0 | -5.0
CCCOC(=O)COc1ccc2c(=O)c(-c3ccccc3OC)coc2c1 | 7 | 1.9
CCc1cc2c(=O)c(-c3cscn3)coc2cc1OC | -19 | ·
CCN1C(=O)c2cccc3c(S(=O)(=O)NCCO)ccc1c23 | 11 | ·
O=C(O)c1cc2c(nc3ccccn32)s1 | 40 | ·
C(=N\N1CCN(C(c2ccccc2)c2ccccc2)CC1)/c1cccnc1 | -5 | ·
OCCN/N=C/c1ccc(Br)cc1 | -6 | ·
CCOC(=O)C1CCN(C(=O)c2ccc(CC)cc2)CC1 | · | -2.8
CNc1nc(N2CCOCC2)nc(N(c2ccccc2)c2ccccc2)n1 | 12 | -1.8
CC(=O)N1CCc2cc(N)ccc21 | -7 | 5.5
CC(=O)NC1=NC(=O)/C(=C\c2ccc(C)cc2)S1 | 2 | -0.4
CCC1c2[nH]c3ccccc3c2CCN1C(=O)Nc1cccc(C)c1 (stereo not drawn) | 33 | ·
CCC(Sc1nc2ccccc2o1)C(=O)O (stereo not drawn) | 5 | -4.9
C/C(=N/O)c1nonc1/C(C)=N\O | -2 | -2.8
c1ccc(CNn2cn[n+](Cc3ccccc3)c2)cc1 | -20 | 0.9
COc1cccc(NC(=O)c2c(O)c3cccc4c3n(c2=O)CC4)c1 | 23 | ·
Oc1ccccc1-c1cc(-c2ccccc2)nn1Cc1ccc(Cl)cc1 | 8 | -0.7

Record cards, from the list above.
Oc1ccccc1-c1cc(-c2ccccc2)nn1Cc1ccc(Cl)cc1 is listed with Sa helicase inh: 8; MgrA-DNA mod: -0.7
COc1ccc(CCNC(=S)N2CCCC2)cc1OC is listed with Sa helicase inh: 10; MgrA-DNA mod: 0.2
CS(=O)(=O)N(CC(=O)N1CCN(Cc2ccc3c(c2)OCO3)CC1)Cc1ccccc1 is listed with Sa helicase inh: -1; MgrA-DNA mod: 1.3

Further entries:
canonical_smiles | Sa helicase inh | MgrA-DNA mod
CC(C)(C)OC(=O)N1CCC(c2c(C(=O)N3CCCC3)cnn2-c2ccccc2)CC1 | -8 | ·
CCc1nnc(SCC(=O)N2CCNC(=O)C2CC(=O)OC)n1N (stereo not drawn) | -12 | ·
COc1ccc2c(c1)nnc1nnc(SCC(=O)N3CCOCC3)n12 | · | 3.6
O=C(NCc1ccccc1)c1ccc(CS(=O)(=O)Cc2ccccc2F)o1 | 9 | ·
CCCCNC(=O)O/N=C(\C)c1ccc2cc(OC)ccc2c1 | · | -0.1
COc1ccc2nc(NNC(=O)c3ccc(S(=O)(=O)N4CCCC4)cc3)sc2c1 | -6 | ·
CC(C)(C)C(=O)NC1CCN(S(C)(=O)=O)CC1 | -1 | 19
CCN(C(C)=O)c1nc(CSc2nnc(C3CCCCC3)n2N)cs1 | -1 | ·
COC(=O)CSc1nc2sc3c(c2c(=O)n1-c1ccc(OC)cc1)CCCC3 | · | 3.2
O=C(OCN1C(=O)c2ccccc2C1=O)c1ccc2c(c1)C(=O)N(Cc1ccco1)C2=O | 14 | ·
COC(=O)c1ccc(OCC(O)CN2C(=O)c3ccccc3C2=O)cc1 (stereo not drawn) | 17 | ·
O=C(CSc1ccc(-c2cccs2)nn1)c1ccccc1 | -2 | -0.3
CCOC(=O)c1c(C)n(-c2ccccc2)c2c1cc(OC(=O)C(C)(C)C)c1ccccc12 | · | -2.9
CCO/C=N/c1oc(-c2ccccc2)c(-c2ccccc2)c1C#N | 13 | ·
COC(=O)c1ccc(S(=O)(=O)N(CCO)Cc2cc3cc(OC)c(OC)cc3[nH]c2=O)cc1 | 5 | 0.8
O=C(CS(=O)(=O)c1c[nH]c2ccccc12)NC1CCCCC1 | 19 | ·
CC(C)(C)C(=O)COC(=O)C1(c2ccc(F)cc2)CCCC1 | 20 | -0.6
CC1CCC(C(=O)NC(C(=O)O)C(C)C)CC1 (stereo not drawn) | 10 | ·
COc1ccc(-c2nc(CS(=O)(=O)CC(=O)NC3CCCCC3C)c(C)o2)cc1 (stereo not drawn) | 0 | ·
O=C(c1noc2c1CCc1ccccc1-2)N1CCCC1 | 9 | ·
COc1ccc(-n2ncc(C(=O)NCCC(C)C)c2C2CCNCC2)cc1 | 8 | ·
COc1ccc(OC)c(-n2c(C)cc(/C=C3/C(=N)N4C(=NC3=O)SN=C4S(=O)(=O)CC(C)C)c2C)c1 | 21 | ·
CCOc1ccc(N2C(=S)NC(c3ccc(N4CCOCC4)cc3)C(C(=O)N3CCOCC3)=C2C)cc1 (stereo not drawn) | -9 | ·
CSC1=NCCN1C(=O)COc1ccc2ccccc2c1 | 9 | ·
Cc1ccccc1NC1SC(=O)N(CCC(=O)O)C1=O (stereo not drawn) | -14 | ·
O=C(CCCN1C(=O)/C(=C/c2cccc(Br)c2)SC1=S)NCCCN1CCOCC1 | · | 2.4
O=[N+]([O-])c1cc(Cl)c(-n2cccc2)cc1Sc1ccc(F)cc1Cl | · | -0.7
CN(CC(=O)NCc1ccccc1Cl)S(=O)(=O)c1cccs1 | 11 | ·
COc1ccc(CNc2ccc(C(=O)O)cc2)cc1 | · | -3.2
CC(=O)N1CCOc2ccc(S(=O)(=O)N(C)CC(=O)Nc3ccc(C)cc3)cc21 | -1 | ·
Cc1ccc(C)c(-n2c(SCc3nc(-c4cccs4)oc3C)nnc2-c2cc3sccc3n2C)c1 | -10 | ·
COc1cc2c(cc1OC)C(c1ccc(C)s1)CC(=O)N2 (stereo not drawn) | 15 | ·
CC(C)NC(=O)c1ccc(-c2ccccc2)s1 | -14 | ·
CN(C)C(=O)c1ccc(-c2n[nH]c(=O)c3ccccc23)cc1 | 1 | 0.6
CC1=NN(C(=O)COc2cc(C)cc(C)c2)C(O)(C(F)(F)F)C1 (stereo not drawn) | 10 | 0.8
O=C(NC1CCN(Cc2ccccc2)CC1)c1ccc(NS(=O)(=O)c2cccs2)cc1 | 10 | 1.6
CCOC(=O)N1CCC(N2Cc3ccc(C(=O)NCc4ccccc4OC)cc3C2=O)CC1 | -22 | ·
CCc1cc(=O)oc2c3c(c(Cl)cc12)OCN(Cc1ccco1)C3 | -13 | ·
c1ccc(COc2nsnc2N2CCOCC2)cc1 | 6 | ·
CCOC(=O)c1c(-c2ccco2)csc1NC(=O)Cn1cnc2ccccc2c1=O | -7 | ·
CCOC(=O)c1c(NC(=O)c2cccs2)sc(C(=O)Nc2cc(C(F)(F)F)ccc2Cl)c1C | · | -0.6
CC(=O)NC1(C(F)(F)F)N=C(c2ccc(C)cc2)NC1=O (stereo not drawn) | 4 | 2.1
Cc1cc(C(=O)CSc2n[nH]c(-c3cccs3)n2)c(C)n1-c1nccs1 | 17 | ·
CC1CCN(C(=O)COC(=O)Cc2c(Cl)cccc2Cl)CC1 | 8 | -1.9
Cc1c(C(=O)CN2CCN(c3ccc(C(F)(F)F)cn3)CC2)sc2ccc(Cl)cc12 | · | -1.7
N#Cc1nc(-c2ccccc2F)oc1NCCc1ccccc1 | 7 | ·
O=C(COn1nnc2ccccc21)NC(=O)Nc1ccc2c(c1)OCCO2 | 12 | ·
COc1ccc(N2CC(C(=O)OCC(=O)Nc3ccccc3C(F)(F)F)CC2=O)cc1 (stereo not drawn) | 11 | 2.5
CC(=O)O/C(=C\c1cn(C(C)=O)c2ccccc12)C(=O)O | 8 | -3.5
COC(=O)C1Cc2c([nH]c3ccccc23)CN1 (stereo not drawn) | · | 2.3
CC1CCN(c2nc3nonc3nc2Nc2cccc(Br)c2)CC1 | · | -0.1
O=C(NCc1cccnc1)c1ccc(Br)cc1 | 18 | ·
CCCn1nnnc1Cn1cnc2scc(-c3ccc(C)s3)c2c1=O | -1 | ·
CCOC(=O)CCc1c(C(=O)OCC)[nH]c(CC)c1C(=O)OCc1ccccc1 | 16 | ·
N#Cc1ccc(COC(=O)C2CN(Cc3ccc(C#N)cc3)CCS2)cc1 (stereo not drawn) | -14 | ·
COc1cccc(NC(=O)Cn2sc3ccccc3c2=O)c1 | 12 | ·
O=c1cc(-c2ccccc2)[nH]c2ccccc12 | · | -3.7
Cc1ccc(C(=O)OCC(=O)N2CCC(c3ccccc3)=N2)cc1 | 3 | ·
COCCN1C(=O)c2ccccc2C(C(=O)Nc2ccc(C(C)C)cc2)C1c1ccc(F)cc1 (stereo not drawn) | 8 | 2.1
O=C(O)c1cc2c(s1)CCCCC2 | -4 | -3.9

Arranged by molecular weight (largest number first): some entries from above
canonical_smiles | Sa helicase inh | MgrA-DNA mod
CC1CCN(c2nc3nonc3nc2Nc2cccc(Br)c2)CC1 | · | -0.1
O=C(NCc1cccnc1)c1ccc(Br)cc1 | 18 | ·
O=c1cc(-c2ccccc2)[nH]c2ccccc12 | · | -3.7

(further entries)
canonical_smiles | Sa helicase inh | MgrA-DNA mod
CC1CCc2c(sc3nc(SCC(N)=O)nc(NCc4ccccc4)c23)C1 (stereo not drawn) | · | 0.8
COc1ccc(-c2nc(=S)c3c(n2CCN2CCOCC2)CC(C)(C)OC3)cc1 | -33 | ·
Fc1ccc(-c2cn3nc4c(nc3n2)CCCC4)cc1 | 1 | 6.5
N#CCC(=O)Nc1ccc(Cl)cc1 | · | -2.3
Cc1onc(-c2c(F)cccc2Cl)c1C(=O)NCC(=O)c1ccc(Br)cc1 | · | 0.7
COc1ccc2c(C)cc(SCc3c(C)noc3C)nc2c1 | 13 | ·
COc1ccc(S(=O)(=O)N2CCn3c(nc4ccccc43)C2)cc1OC | -14 | ·

A few values from the list:
`N#CCC(=O)Nc1ccc(Cl)cc1` | MgrA-DNA mod: -2.3
`COc1ccc(-c2nc(=S)c3c(n2CCN2CCOCC2)CC(C)(C)OC3)cc1` | Sa helicase inh: -33
`CC1CCc2c(sc3nc(SCC(N)=O)nc(NCc4ccccc4)c23)C1` (stereo not drawn) | MgrA-DNA mod: 0.8
`COc1ccc2c(C)cc(SCc3c(C)noc3C)nc2c1` | Sa helicase inh: 13
